FGF22 binding: binders of human FGF22 protein, primary screen, FGF22 synaptogenesis inhibitor project, biophysical, thermal shift, single point | Fibroblast growth factor 22 (Homo sapiens), Q9HCT0 | recombinant FGF22 thermal shift, SYPRO orange fluorescence; percent of sucrose octasulfate shift, DMSO zero | calls only at 9.99 µM | actives 1.5% (n = 340,000);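 active means melting point raised past a set limit in the mean and every replicate; inconclusive means no clear call; three in four hits are not shown here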
Target sequence (Q9HCT0 whole entry, looked up): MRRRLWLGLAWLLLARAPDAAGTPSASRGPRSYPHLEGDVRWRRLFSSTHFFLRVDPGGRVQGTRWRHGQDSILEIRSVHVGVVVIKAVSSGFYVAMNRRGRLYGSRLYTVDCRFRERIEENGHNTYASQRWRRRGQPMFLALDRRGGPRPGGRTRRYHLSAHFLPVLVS
Vif TR-FRET: inhibitors of Vif binding to APOBEC3G peptide, primary screen, biochemical, TR-FRET, GST-Vif 1-94, biotin-A3G peptide, dose response retest (AID 1117319) | Virion infectivity factor (Human immunodeficiency virus type 1 group M subtype B (isolate … | TR-FRET GST-Vif / biotin-A3G peptide binding; higher % means a stronger effect; test concentration not given here; strong numbers were not always called active | inhibition, %, or IC50 in µM where a hit was titrated | actives 0.57% (n = 260,000);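 active means above the screen mean plus three standard deviations and confirmed in dose response; inconclusive means results disagree or hit not tested in dose response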;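 further: Vif residues 1-94 fused to GST binding biotinylated APOBEC3G peptide 110-148; 0% = full assay without inhibitor and 100% = GST in place of GST-Vif; retest series ran down from 100 µM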
AF4-AF9 inh: inhibitors of AF4 peptide binding to AF9, primary screen, biochemical, AlphaScreen, biotin-AF4 peptide, FLAG-AF9, single point. Protein AF-9 (Homo sapiens), P42568. inhibition, % at 10 µM. actives 0.47% (n = 350,000). AID 651704, 2012;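 active means every replicate reaching a set inhibition limit, whatever the replicate mean, cut at about 25% in these data; inconclusive means mean inhibition reaches that limit but some replicates miss it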;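 further: 0% = plate neutral control median and 100% = total signal loss; the record names both 10 and 1 µM as test concentration; the first replicate is given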
E coli growth: E. coli growth inhibition, primary screen, OD600. Escherichia coli growth, 23 h; hits give low values. OD600 absorbance (concentration not given with the values). actives 0.21% (n = 330,000);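 active means OD600 absorbance below the run mean of sample wells minus 3.6 SD, in any replicate, cut at about 0.56 in these data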;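 further: stock transfer was 300 nL into about 60 µL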
ALR inh: inhibitors of human ALR sulfhydryl oxidase, primary screen, biochemical, H2O2 detection, HRP-luminol luminescence, single point; FAD-linked sulfhydryl oxidase ALR (Homo sapiens), P55789; purified ALR, DTT oxidation; inhibition, % (no concentration beside the values); actives 3.8% (n = 290,000); AID 485317, 2010;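 active means mean and each replicate at 75% or more; inconclusive means only one of the two met; inactive means neither met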;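 further: stock transfer was 7.5 nL into about 7.5 µL; 0% = neutral wells and 100% = wells with inactivated enzyme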
Target sequence (P55789 whole entry, looked up): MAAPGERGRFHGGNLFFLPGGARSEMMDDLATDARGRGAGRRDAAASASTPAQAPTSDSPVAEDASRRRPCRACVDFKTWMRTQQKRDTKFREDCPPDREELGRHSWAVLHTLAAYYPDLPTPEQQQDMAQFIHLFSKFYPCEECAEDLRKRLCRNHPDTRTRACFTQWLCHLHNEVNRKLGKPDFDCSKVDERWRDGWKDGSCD
HNF4A DNA FP: change in binding of human HNF4A to DNA, primary screen, biochemical, fluorescence polarization, FITC-DNA | 1 h | activity change, % at 10 µM | actives 0.3% (n = 360,000) | AID 1224865, 2016; in the data active means activity change above about 30%, passing the limit was not always enough;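 further: controls were the assay level and a saturating level of protein; the project sought stronger binding though the title names inhibitors; some compounds called inactive have numbers as strong as hits; positive values seem to mean higher polarization but the record does not say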
Target sequence (P41235 whole entry, looked up): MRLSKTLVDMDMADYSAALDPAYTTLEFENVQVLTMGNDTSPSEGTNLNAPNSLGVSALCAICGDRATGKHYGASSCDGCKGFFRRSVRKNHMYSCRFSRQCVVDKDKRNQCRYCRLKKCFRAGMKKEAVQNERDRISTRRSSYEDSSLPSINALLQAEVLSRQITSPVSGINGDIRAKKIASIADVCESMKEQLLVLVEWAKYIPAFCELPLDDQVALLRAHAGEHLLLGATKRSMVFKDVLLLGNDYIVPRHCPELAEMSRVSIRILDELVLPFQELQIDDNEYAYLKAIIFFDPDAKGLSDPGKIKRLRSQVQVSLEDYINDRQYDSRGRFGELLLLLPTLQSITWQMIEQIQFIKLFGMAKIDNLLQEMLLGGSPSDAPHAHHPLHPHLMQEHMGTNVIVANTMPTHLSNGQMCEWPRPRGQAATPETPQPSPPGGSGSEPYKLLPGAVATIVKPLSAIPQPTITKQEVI
rRNA inh HTS: reduced GFP signal of wild-type E. coli, primary screen, bacterial rRNA inhibitor project, GFP/RFP fluorescence, OD600, single point. E. coli WT GFP vs humanized-ribosome RFP mutants, 24 h; hits give low values; DMSO median 0, no signal -100. actives 1.6% (n = 350,000). GFP signal change (wild-type ribosome), % (test concentration not listed);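 active means significant combined selectivity score with lowered wild-type GFP, culture density cut under 30%, mutant RFP and density less affected; inactive means any of these conditions unmet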; further: one replicate is shown; some compounds called inactive have numbers as strong as hits
rRNA inh HTS OD600: second read-out of rRNA inh HTS, no call of its own (marks repeat the call); OD600 change, %; measured here: OD600 growth;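 optical density of the mix in the first replicate; 0 = DMSO median and -100 = no signal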
rRNA inh HTS RFP: also measured in rRNA inh HTS; calls as there; RFP signal change, %; measured here: RFP humanized mutant strains;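 first replicate; 0 = DMSO median and -100 = no signal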
An asterisk follows results filed as active; i = inactive; ? = inconclusive; · = not tested or not shown.

Structure | FGF22 binding | Vif TR-FRET | AF4-AF9 inh | E coli growth | ALR inh | HNF4A DNA FP | rRNA inh HTS | rRNA inh HTS OD600 | rRNA inh HTS RFP
COc1ccccc1N1C(=O)C=C(Sc2nc(C)cc(C)n2)C1=O | · | 5% | -5.5 | 0.66 | 28 | 5.3 | 3 | 17 | 43
CC(C)CC[n+]1ccn(-c2nc3ccccc3nc2[N-]S(=O)(=O)c2ccc(Cl)cc2)c1 | i | -3% | -1.8 | 0.7 | -18 | 0.9 | -3 | 9 | -2.0
Cc1ccccc1-c1coc2cc(O)ccc2c1=O | · | 1% | -4.9 | 0.73 | · | 3.6 | · | · | ·
CCOC(=O)C(NC(=O)c1ccc(OC)cc1)(N1CCCC1=O)C(F)(F)F (stereo not drawn) | · | 22% | · | 0.71 | · | -0.1 | · | · | ·
Clc1ccc(-c2nc3ccc(Cl)cn3c2Cc2ccsc2)cc1 | i | · | -0.7 | · | · | -4.0 | -13 | -20 | 3.2
CO[C@H]1CN(C)C(=O)c2ccc(NC(=O)C3CCCCC3)cc2OC[C@@H](C)N(C(=O)c2ccccc2)C[C@H]1C | i | · | -1.3 | · | · | · | -4 | -5 | 2.5
Cc1csc2ncc(C(=O)NCCc3ccccc3)c(=O)n12 | i | -4% | 1.7 | 0.74 | 4 | 1.8 | 1 | 0 | 0.1
Cc1cc2c(=O)[nH]c(N)nc2[nH]1 | i | -6% | 1.5 | · | · | 5.3 | 20 | 24 | 3.6
O=c1[nH]c(=O)n(Cc2ccco2)c2c1C(C(F)(F)F)(C(F)(F)F)N=C(CCc1ccccc1)N2 | · | 6% | · | 0.64 | · | 0.1 | · | · | ·
COc1cc(Br)cc(/C=C/c2ccc3cccc(O)c3n2)c1OC | i | 11% | -2.2 | 0.7 | -2 | -0.3 | -3 | 3 | 2.7
COC(=O)c1ccccc1COc1cccn2c(N(C)Cc3cccs3)c(C)nc12 | i | · | 4.4 | · | · | 0.3 | 12 | 10 | 3.3
COc1cccc(C(NC(C)=O)c2nc(-c3cccc4cccnc34)cs2)c1 (stereo not drawn) | i | · | -8.5 | · | · | 1.5 | -3 | -4 | 4.0
COCC(=O)Nc1ccc2c(c1)[C@@H]1C[C@@H](CC(=O)NCc3ccc(OC)cc3)O[C@@H](CO)[C@@H]1O2 | i | · | -1.4 | · | · | · | 1 | -2 | 0.2
CN(C)CCCNc1nc(N)c([N+](=O)[O-])c(NCc2ccccc2)n1 | i | 3% | 3.3 | 0.7 | -2 | -3.8 | 13 | 2 | 1.5
COC(=O)c1cc2ccccc2c(-c2c(OC)c(C(=O)OC)cc3ccccc23)c1OC | · | -2% | · | 0.71 | -1 | 2.4 | · | · | ·
Cc1noc(C)c1S(=O)(=O)Nc1ccc2c(c1)C(=O)N([C@@H](C)CO)C[C@H](C)[C@H](CN(C)CC1CCCCC1)O2 | i | · | 1.8 | · | · | · | 5 | 0 | 0.9
COC(=O)CCC(=O)c1oc2ccc(Cl)cc2c1NC(=O)CCCN1C(=O)c2ccccc2C1=O | · | -17% | · | 0.72 | -1 | 3.4 | · | · | ·
CCCNC(=O)C[C@H]1CC[C@H]2[C@@H](COc3ccc(NC(=O)c4cccc(OC)c4)cc3C(=O)N2C)O1 | i | · | -0.6 | · | · | · | -1 | -2 | -1.5
COc1ccccc1N(CC(=O)N1CCN(Cc2ccccc2)CC1)S(=O)(=O)c1ccccc1 | i | -6% | 0.1 | · | · | -0.2 | · | · | ·
COc1cc(-c2nnc(COC(=O)c3ccc([N+](=O)[O-])o3)o2)cc(OC)c1OC | i | 0% | 2.0 | · | · | 3.8 | -14 | -1 | -2.5
Cc1ccc(-n2nc3c(c2NC(=O)C2CCCC2)CS(=O)(=O)C3)cc1 | i | ? | -3.1 | 0.68 | 7 | 5.6 | 14 | 18 | 2.4
Cc1ccc(-c2csc(NC(=O)CSc3nc4ccccc4[nH]3)n2)cc1 | · | -15% | · | 0.71 | · | 1.7 | · | · | ·
O=C(COC(=O)CNS(=O)(=O)c1ccc(F)c(F)c1F)NCCc1ccccc1 | i | · | -1.1 | 0.67 | 2 | 1.0 | 2 | 0 | 2.5
COCC(=O)N(C)C[C@H]1Oc2cc(C#CCN(C)C)ccc2S(=O)(=O)N([C@H](C)CO)C[C@H]1C | i | · | -3.3 | · | · | · | 6 | 16 | -4.0
O=C(c1cccc(S(=O)(=O)Nc2ccc(F)cc2)c1)N1CCC1 | i | -4% | -3.2 | 0.68 | -2 | -0.6 | · | · | ·
Cc1ccc(CN(Cc2cccnc2)C(=S)Nc2cc(Cl)ccc2C)cc1 | i | -6% | -1.6 | 0.74 | · | 0.1 | 2 | -3 | 31
COc1cc(/C=C2\CCCc3c2nc2ccccc2c3C(=O)O)cc(Cl)c1O | i | -3% | 1.4 | · | 98* | -0.2 | -3 | -21 | 2.2
Cc1cc(C)c2cc(CN(Cc3ccco3)C(=S)NCC3CCCO3)c(=O)[nH]c2c1 (stereo not drawn) | i | -7% | 4.5 | · | 96* | 5.9 | 3 | 0 | 15
CC(C)(C)c1ccc(/C=N/NC(=S)NCc2ccccc2)cc1 | i | -3% | 7.2 | · | · | 3.6 | 12 | 7 | -2.1
CC(C)(C)NC(=O)C(c1ccccc1)n1c(-c2ccc(-c3ccccc3)cc2)nc2ccccc21 (stereo not drawn) | i | · | -0.1 | · | · | 2.7 | 7 | 7 | -9.2
O=[N+]([O-])c1cccc(Cl)c1N1CCOCC1 | · | -5% | · | 0.62 | -3 | 0.7 | · | · | ·
Nc1ccc(Sc2ccccc2)nc1 | i | · | -0.6 | 0.7 | 4 | -0.1 | -2 | -17 | -2.6
Cc1cc(NC(=O)Nc2cccc(C(F)(F)F)c2)no1 | · | 0% | · | 0.63 | -3 | -1.4 | · | · | ·
CN(C(=O)c1ccc(NC(=O)Cc2cccc([N+](=O)[O-])c2)cc1)C1CCCC1 | i | · | 1.8 | 0.6 | 5 | 3.4 | 2 | 10 | -0.6
COc1ccc(NS(=O)(=O)c2c(C(=O)N3CCCCCC3)c(C)n(C)c2C)cc1OC | i | · | -0.1 | 0.69 | -2 | -1.4 | 4 | 4 | -1.3
CC(=O)NC(NC(=S)Nc1ccc(S(N)(=O)=O)cc1)C(Cl)(Cl)Cl (stereo not drawn) | i | 0% | -65 | 0.69 | · | -4.3 | 11 | 6 | 1.2
Cc1noc(C)c1NC(=O)N(C)C[C@@H]1Oc2ccc(NC(=O)c3ccncc3)cc2C(=O)N([C@H](C)CO)C[C@@H]1C | i | · | -0.2 | · | · | · | 0 | -2 | -0.8
COc1ccccc1NC(=O)COC(=O)CCn1c(C)csc1=O | i | 2% | -9.7 | 0.61 | -2 | -3.2 | 16 | 5 | 1.1
CCCN(S(=O)(=O)c1ccc(OCC)cc1)S(=O)(=O)c1cccs1 | · | -17% | · | 0.68 | -16 | 2.9 | · | · | ·
COCCn1c(=S)[nH]c2cc(C(=O)NCCc3ccc(OC)c(OC)c3)ccc2c1=O | · | ? | · | 0.74 | -39 | -0.1 | · | · | ·
Cn1c(=O)c2cc(NC(=O)NCc3ccc(F)cc3)ccc2n1C | i | · | 0.2 | · | · | 1.9 | 3 | 9 | -0.2
O=C(NCCCO)/C(=C\c1cn(-c2ccccc2)nc1-c1cccnc1)NC(=O)c1ccccc1 | · | -13% | -0.8 | 0.68 | 1 | -3.3 | 0 | -2 | 1.4
COc1ccc(C2CC(c3cccs3)=NN2S(C)(=O)=O)cc1OC (stereo not drawn) | i | 1% | 0.6 | 0.7 | -3 | 9.4 | 6 | 1 | -3.1
CCCS(=O)(=O)NC(=O)C1(C)CCCN(C(=O)c2cccc(C(F)(F)F)c2)C1 (stereo not drawn) | i | · | -8.3 | · | · | 0.2 | -6 | 6 | -6.4
O=C(O)CC(C(=O)O)C(=Cc1ccccc1)c1ccccc1 (stereo not drawn) | i | -4% | -0.9 | · | · | -0.5 | 2 | 6 | 5.8
O=C1CN(N=Cc2ccco2)C(=O)N1 | i | 0% | -3.4 | 0.67 | · | 0.5 | 13 | 3 | 4.7
C/C=C\C=C\C(=O)N1CC2(CC(c3cccc(NC(=O)COc4ccc(Cl)cc4)c3)=NO2)C[C@H]1C(N)=O (stereo partly drawn) | i | 11% | · | · | -1 | -3.8 | 5 | 5 | 6.0
C[C@@H]1CN([C@H](C)CO)C(=O)Cc2cc(NC(=O)CCC(F)(F)F)ccc2O[C@@H]1CN(C)Cc1ccc(C(=O)O)cc1 | i | · | -3.7 | · | · | · | 2 | 2 | 1.1
CC(=O)c1cccc(NC(=O)COc2ccc(S(=O)(=O)N3CCCCC3)cc2)c1 | · | -1% | · | 0.79 | · | -0.9 | · | · | ·
Cc1cc(C)cc(OCC(=O)Nc2cnn(CCCC(=O)O)c2)c1 | i | · | -1.7 | 0.69 | -41 | 0.6 | 7 | 9 | -0.6

ALR inh, hit marks shown above.
mol,Vif TR-FRET,AF4-AF9 inh,ALR inh,HNF4A DNA FP,rRNA inh HTS,rRNA inh HTS OD600,rRNA inh HTS RFP
COc1cc(/C=C2\CCCc3c2nc2ccccc2c3C(=O)O)cc(Cl)c1O,-3%,1.4,98*,-0.2,-3,-21,2.2
Cc1cc(C)c2cc(CN(Cc3ccco3)C(=S)NCC3CCCO3)c(=O)[nH]c2c1 (stereo not drawn),-7%,4.5,96*,5.9,3,0,15

Other compounds
Structure | FGF22 binding | Vif TR-FRET | AF4-AF9 inh | E coli growth | ALR inh | HNF4A DNA FP | rRNA inh HTS | rRNA inh HTS OD600 | rRNA inh HTS RFP
CCCc1cc(Nc2c(C)n(C)n(-c3ccccc3)c2=O)n2c(nc3ccccc32)c1C#N | · | ? | · | 0.66 | -51 | -5.0 | · | · | ·
O=C(O)CN1C(=O)/C(=C\c2ccccc2OCc2ccc(Cl)cc2Cl)SC1=S | i | 5% | 4.0 | 0.71 | 87* | -4.9 | -52 | -66 | -16
CCCNC(=O)NC(=O)COc1ccc(-c2ccc(C#N)cc2)cc1 | i | -2% | -2.7 | 0.73 | 0 | -0.7 | 17 | 4 | -1.8
CC1CCC(NC(=O)C2CCN(c3cnccn3)CC2)CC1 (stereo not drawn) | · | -1% | · | 0.74 | 3 | 3.9 | · | · | ·

Molecules shown so far containing a nitro group on carbon (4):
Structure | FGF22 binding | Vif TR-FRET | AF4-AF9 inh | E coli growth | ALR inh | HNF4A DNA FP | rRNA inh HTS | rRNA inh HTS OD600 | rRNA inh HTS RFP
CN(C)CCCNc1nc(N)c([N+](=O)[O-])c(NCc2ccccc2)n1 | i | 3% | 3.3 | 0.7 | -2 | -3.8 | 13 | 2 | 1.5
COc1cc(-c2nnc(COC(=O)c3ccc([N+](=O)[O-])o3)o2)cc(OC)c1OC | i | 0% | 2.0 | · | · | 3.8 | -14 | -1 | -2.5
O=[N+]([O-])c1cccc(Cl)c1N1CCOCC1 | · | -5% | · | 0.62 | -3 | 0.7 | · | · | ·
CN(C(=O)c1ccc(NC(=O)Cc2cccc([N+](=O)[O-])c2)cc1)C1CCCC1 | i | · | 1.8 | 0.6 | 5 | 3.4 | 2 | 10 | -0.6

High-throughput results from PubChem.

This is a subset. The share of hits here may be higher or lower than overall.
